Assay outcomes from PubChem BioAssay.
MLL AF4-AF9 inh = MLL-AF4/AF9 protein interaction inhibition | P42568 | inhibition, % at 10 µM | 350,000 tested, 0.47% active | AlphaScreen, biotin-AF4 peptide binding to FLAG-AF9;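 active means every replicate reaching a set inhibition limit, whatever the replicate mean, cut at about 25% in these data; inconclusive means mean inhibition reaches that limit but some replicates miss it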;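 further: 0% = plate neutral control median and 100% = total signal loss; the record names both 10 and 1 µM as test concentration; the first replicate is given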
Target sequence (P42568 whole entry, looked up): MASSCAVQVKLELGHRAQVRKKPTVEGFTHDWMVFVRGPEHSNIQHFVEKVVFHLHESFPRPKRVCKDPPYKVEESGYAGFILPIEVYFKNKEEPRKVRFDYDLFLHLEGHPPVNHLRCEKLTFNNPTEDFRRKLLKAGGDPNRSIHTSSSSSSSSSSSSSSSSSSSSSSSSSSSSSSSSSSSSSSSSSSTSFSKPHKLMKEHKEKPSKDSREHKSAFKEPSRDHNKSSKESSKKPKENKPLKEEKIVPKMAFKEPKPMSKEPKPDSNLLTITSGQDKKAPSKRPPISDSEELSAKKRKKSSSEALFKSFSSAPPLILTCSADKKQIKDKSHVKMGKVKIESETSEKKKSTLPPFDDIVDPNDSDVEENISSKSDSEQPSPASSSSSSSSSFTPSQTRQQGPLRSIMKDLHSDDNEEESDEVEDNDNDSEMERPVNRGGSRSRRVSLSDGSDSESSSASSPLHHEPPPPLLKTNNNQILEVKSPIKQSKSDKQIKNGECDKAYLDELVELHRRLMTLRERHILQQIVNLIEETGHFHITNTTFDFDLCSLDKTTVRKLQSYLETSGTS
Vif TR-FRET = inhibitors of Vif binding to APOBEC3G peptide, primary screen, biochemical, TR-FRET, GST-Vif 1-94, biotin-A3G peptide, dose response retest (AID 1117319); 260,000 tested, 0.57% active; TR-FRET GST-Vif / biotin-A3G peptide binding; higher % means a stronger effect; test concentration not given here; strong numbers were not always called active; one-dose inhibition, %; IC50 in µM for titrated hits;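 active means above the screen mean plus three standard deviations and confirmed in dose response; inconclusive means results disagree or hit not tested in dose response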;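 further: Vif residues 1-94 fused to GST binding biotinylated APOBEC3G peptide 110-148; 0% = full assay without inhibitor and 100% = GST in place of GST-Vif; retest series ran down from 100 µM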
RanGTP-Imp inh = inhibitors of RanGTP-importin-beta interaction, primary screen, biochemical, FRET, CFP-Ran, YFP-importin-beta, homogeneous | inhibition, % (no concentration beside the values) | 300,000 tested, 1.1% active | AID 2216 | cell-free CFP-Ran/YFP-importin-beta FRET ratio;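 active means most replicates above 15%; inconclusive means exactly half above 15%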;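 further: 0% = DMSO wells and 100% = Ran loaded with GDP instead of GTP; wells of about 40 µL received 100 nL stock; the first replicate is given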
Beta cell apopt = blocks beta cell apoptosis; INS-1E cytokine-induced death, ATP luminescence, 48 h; percent of positive-control rescue, neutral wells zero; 300,000 tested, 0.8% active; protection from apoptosis, % (no concentration beside the values);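 active means all replicates at 75% or more, or half of them and the mean; inconclusive means half reach 75% but not the mean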;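 further: 0% = cytokine-treated negative control wells and 100% = positive control rescue; higher means more ATP so stronger rescue from cytokine killing; wells of about 40 µL received 100 nL stock; the first replicate is given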
Ecoli rRNA inh = inhibits bacterial ribosomal RNA function over humanized ribosomes. E. coli WT GFP vs humanized-ribosome RFP mutants, fluorescence, 24 h; stronger effect = lower value; DMSO median 0, no signal -100. AID 720706. 350,000 tested, 1.6% active. GFP signal change (wild-type ribosome), % (concentration not given with the values);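 active means significant combined selectivity score with lowered wild-type GFP, culture density cut under 30%, mutant RFP and density less affected; inactive means any of these conditions unmet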; further: one replicate is shown; some compounds called inactive have numbers as strong as hits
Calb FLC = affects C. albicans growth with fluconazole. C. albicans CaCi-2 (fluconazole-resistant clinical isolate) + fluconazole, Alamar Blue growth, 48 h. growth inhibition, % (test concentration not listed). 300,000 tested, 0.57% active. AID 1979;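 active means most replicates above 75%; inconclusive means exactly half above 75%; inactive means most below 75%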;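 further: all wells also contain fluconazole at 8 µg/ml as a sub-toxic cotreatment; 0% = median of DMSO wells and 100% = median of geldanamycin control wells; wells of about 8 µL received 7.5 nL stock; the first replicate is given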
T cruzi inh = T. cruzi replication inhibition. 300,000 tested, 1.4% active. AID 1885. T. cruzi beta-gal in NIH3T3, luminescence, 90 h. inhibition, % (test concentration not listed);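 active means mean inhibition across valid replicates above about 55%, limit read from the data; inconclusive means mean below that limit but half or more replicates reach it; inactive means mean below it, under half of replicates reach it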;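 further: signal also drops with host cell toxicity which is not excluded here; 0% = plate median of DMSO wells and 100% = zero luminescence signal; higher percent means less beta-gal luminescence so fewer parasites; stock transfer was 50 nL into about 50 µL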
Bfl-1 A1 inh = inhibitors of the anti-apoptotic protein A1, read as caspase activation. MEF A1-2A-BIM cells, Caspase-Glo 3/7 luminescence, 3 h; percent of clofoctol response, vehicle zero. caspase activation, % (no concentration beside the values). 330,000 tested, 0.066% active;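 active means over half of replicate activation scores above 10%, or exactly half above 10 with the replicate mean above 10; inconclusive means replicate mean below 10 yet half the replicates above 10; inactive means over half of replicates below 10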;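 further: wells of about 30 µL received 50 nL stock; many hits fall short of the cut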
Ecoli rRNA inh OD600 = also measured in Ecoli rRNA inh; calls as there; OD600 change, %; measured here: OD600 growth;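 optical density of the mix in the first replicate; 0 = DMSO median and -100 = no signal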
Ecoli rRNA inh RFP = recorded beside Ecoli rRNA inh, whose call it bears; RFP signal change, %; measured here: RFP humanized mutant strains;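 first replicate; 0 = DMSO median and -100 = no signal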
Starred values were filed as active, the others as inactive; & = joins results of further samples. Only part of the results is shown. The share of hits here may be higher or lower than overall.

`CCCCOCCCNC(=O)N[C@@H](CC(C)C)C(=O)O` gave Vif TR-FRET 2%, RanGTP-Imp inh -2.7, Beta cell apopt -2, Calb FLC -8, T cruzi inh -9 and Bfl-1 A1 inh 0.3.
For CCn1c(CSc2nc3ccccc3s2)nnc1SCC(=O)NCC(=O)OC the results were Vif TR-FRET inconclusive, RanGTP-Imp inh -0.4, Beta cell apopt -5, Calb FLC 0 and Bfl-1 A1 inh 0.0.
`COc1ccc(/C=C/C(=O)OCC(=O)Nc2cccc(C(C)=O)c2)cc1` gave RanGTP-Imp inh 3.1, Beta cell apopt -10, Calb FLC 0, T cruzi inh 8 and Bfl-1 A1 inh 0.0.
For Cc1c(-n2c(SC(C)C(=O)NC(N)=O)nc3ccccc3c2=O)c(=O)n(-c2ccccc2)n1C (stereo unspecified) the results were MLL AF4-AF9 inh 1.7, Vif TR-FRET -1%, RanGTP-Imp inh 0.7, Beta cell apopt -1, Ecoli rRNA inh 7, Calb FLC 2, T cruzi inh 3, Bfl-1 A1 inh -0.2, Ecoli rRNA inh OD600 6 and Ecoli rRNA inh RFP -2.9.
`CCN(CC)S(=O)(=O)c1ccc(NN)nc1` gave MLL AF4-AF9 inh -0.9, Vif TR-FRET 15%, RanGTP-Imp inh 3.0, Beta cell apopt 6, Ecoli rRNA inh 8, Calb FLC 1, T cruzi inh 4, Bfl-1 A1 inh 0.0, Ecoli rRNA inh OD600 2 and Ecoli rRNA inh RFP -0.7.
Screening CN(Cc1nc(-c2ccncc2)no1)S(=O)(=O)c1ccc(Br)cc1 returned Vif TR-FRET 6%, RanGTP-Imp inh -2.8, Beta cell apopt 6, Calb FLC -1, T cruzi inh 26 and Bfl-1 A1 inh 0.3.
For CNCc1ccccc1OCc1ccccc1F the results were MLL AF4-AF9 inh 1.2, Vif TR-FRET 5%, RanGTP-Imp inh -3.5, Beta cell apopt -3, Ecoli rRNA inh 7, Calb FLC 1, T cruzi inh -4, Bfl-1 A1 inh 0.2, Ecoli rRNA inh OD600 0 and Ecoli rRNA inh RFP 1.9.
CCOC(=O)N1CCC(N2C(=O)c3cc(C(=O)NC4CCCCC4)ccc3C2O)CC1 (stereo unspecified) was read as MLL AF4-AF9 inh -6.5, Vif TR-FRET 10%, RanGTP-Imp inh -2.0, Ecoli rRNA inh 3, Calb FLC 6, T cruzi inh 6, Bfl-1 A1 inh 0.3, Ecoli rRNA inh OD600 10 and Ecoli rRNA inh RFP -2.8.
`Cc1cc(C)c(S(=O)(=O)c2ccccc2)c(OC(=O)c2c(Cl)cc(Cl)cc2Cl)n1` gave Vif TR-FRET 0%, RanGTP-Imp inh -3.3, Beta cell apopt -5, Calb FLC 7, T cruzi inh 9 and Bfl-1 A1 inh 0.1.
For CCN(CC)C(=O)C1CCCN(Cc2ccc(OC)c(C)c2C)C1 (stereo unspecified) the results were Vif TR-FRET -1%, RanGTP-Imp inh 8.5, Beta cell apopt 3, Ecoli rRNA inh 1, Calb FLC -4, T cruzi inh 50, Bfl-1 A1 inh 0.9, Ecoli rRNA inh OD600 8 and Ecoli rRNA inh RFP -0.5.
`CCN(CC)C(=O)Oc1ccc(OC(=O)N(CC)CC)cc1` gave MLL AF4-AF9 inh -2.2, Vif TR-FRET 2%, RanGTP-Imp inh 3.4, Beta cell apopt -11, Ecoli rRNA inh -2, Calb FLC 2, T cruzi inh 9, Bfl-1 A1 inh 0.2, Ecoli rRNA inh OD600 -2 and Ecoli rRNA inh RFP 1.6.
C#CCn1c(O)c(N=NC(=O)CNC(=O)c2cccnc2)c2ccccc21 was read as MLL AF4-AF9 inh 0.0, RanGTP-Imp inh -0.1, Beta cell apopt -2, Ecoli rRNA inh 0, T cruzi inh -1, Bfl-1 A1 inh 0.3, Ecoli rRNA inh OD600 -4 and Ecoli rRNA inh RFP -1.0.
Screening C/C(Cn1nnc2ccccc21)=N/OC(=O)c1c(F)cccc1F returned MLL AF4-AF9 inh -1.0, Vif TR-FRET 9%, RanGTP-Imp inh 4.8, Beta cell apopt 0, Ecoli rRNA inh -14, Calb FLC -5, T cruzi inh -23, Bfl-1 A1 inh -0.6, Ecoli rRNA inh OD600 -5 and Ecoli rRNA inh RFP -8.0.
C/C(CC1CC(COCCC(C)C)OC1=O)=N\NC(N)=S (stereo unspecified) was read as Vif TR-FRET 3%, Beta cell apopt 6, Calb FLC -18, T cruzi inh -20 and Bfl-1 A1 inh 0.1.
For Cc1cccc(CC2CC(=O)N(C3CCCCC3)C2=O)c1 (stereo unspecified) the results were MLL AF4-AF9 inh 8.3, Vif TR-FRET 10%, RanGTP-Imp inh -3.3, Beta cell apopt -5, Ecoli rRNA inh -42, Calb FLC -28, T cruzi inh 8, Bfl-1 A1 inh 0.2, Ecoli rRNA inh OD600 -60 and Ecoli rRNA inh RFP -16.
For O=C(Nc1nc(-c2ccc(-c3ccccc3)cc2)cs1)c1cnccn1 the results were MLL AF4-AF9 inh -1.3, Vif TR-FRET 2%, RanGTP-Imp inh 6.6, Beta cell apopt 11, Ecoli rRNA inh 12, Calb FLC 22, T cruzi inh -11, Bfl-1 A1 inh -0.3, Ecoli rRNA inh OD600 5 and Ecoli rRNA inh RFP 4.4.
Screening COc1ccc(S(=O)(=O)Nc2ccc(S(=O)(=O)N3CCCC3)cc2)cc1 returned Vif TR-FRET -5%, RanGTP-Imp inh -1.8, Beta cell apopt -2, Calb FLC -2, T cruzi inh -4 and Bfl-1 A1 inh 0.8.
`Cc1ccc(S(=O)(=O)CC(=O)N2CC(C)OC(C)C2)cc1` (stereo unspecified) gave MLL AF4-AF9 inh -0.8, RanGTP-Imp inh -1.5, Beta cell apopt 1, Ecoli rRNA inh 1, Calb FLC -8, T cruzi inh -24, Bfl-1 A1 inh 0.4, Ecoli rRNA inh OD600 6 and Ecoli rRNA inh RFP -2.7.
For O=[N+]([O-])c1ccc(NCCNS(=O)(=O)c2ccccc2)cc1 the results were MLL AF4-AF9 inh 4.1, Vif TR-FRET -6%, RanGTP-Imp inh 0.9, Beta cell apopt -2, Ecoli rRNA inh -9, Calb FLC -6, T cruzi inh -10, Bfl-1 A1 inh -0.5, Ecoli rRNA inh OD600 -13 and Ecoli rRNA inh RFP -0.4.
`CC1CCCC(NC(=O)c2cccc(S(=O)(=O)NCc3ccccc3)c2)C1C` (stereo unspecified) gave MLL AF4-AF9 inh 0.0, Vif TR-FRET -15%, Beta cell apopt 7, Ecoli rRNA inh -29, Bfl-1 A1 inh 0.3, Ecoli rRNA inh OD600 -52 and Ecoli rRNA inh RFP -9.2.
CC(c1ccccc1)C1OCC(C[N+]2(C)CCCCC2)O1 (stereo unspecified) was read as MLL AF4-AF9 inh -4.2, RanGTP-Imp inh 0.3, Beta cell apopt -2, Ecoli rRNA inh 21, Calb FLC -11, T cruzi inh -3, Bfl-1 A1 inh 0.1, Ecoli rRNA inh OD600 9 and Ecoli rRNA inh RFP 2.2.
Screening NC(=O)NC(CC(=O)NCCc1ccc(S(N)(=O)=O)cc1)c1ccc(Cl)cc1 (stereo unspecified) returned MLL AF4-AF9 inh -14, Vif TR-FRET 0%, RanGTP-Imp inh -1.7, Beta cell apopt 2, Ecoli rRNA inh -24, Calb FLC 3, T cruzi inh -11, Bfl-1 A1 inh inconclusive, Ecoli rRNA inh OD600 -24 and Ecoli rRNA inh RFP 10.
For O=[N+]([O-])c1ccccc1-c1cc(-c2ccccc2O)n[nH]1 the results were Vif TR-FRET -1%, RanGTP-Imp inh 0.2, Calb FLC 0, T cruzi inh -2 and Bfl-1 A1 inh -1.6.
Screening O=c1cc(-c2ccccc2)nc2nc(COc3ccccc3)[nH]n12 returned Vif TR-FRET 1%, RanGTP-Imp inh -0.5, Beta cell apopt -2, Calb FLC 6, T cruzi inh -16 and Bfl-1 A1 inh 0.6.
C=CCN1C(=O)C(CC(=O)Nc2ccccc2F)S/C1=N\c1nccs1 (stereo unspecified) was read as MLL AF4-AF9 inh -0.4, Vif TR-FRET -4%, RanGTP-Imp inh -3.3, Beta cell apopt 2, Ecoli rRNA inh 10, Calb FLC 1, T cruzi inh 1, Bfl-1 A1 inh 0.7, Ecoli rRNA inh OD600 7 and Ecoli rRNA inh RFP 4.8.
Screening Cn1c(=O)c(C(=O)NNC(=O)c2ccccc2Cl)c(O)c2ccccc21 returned MLL AF4-AF9 inh -0.2, RanGTP-Imp inh 0.8, Beta cell apopt -1, Ecoli rRNA inh 0, Calb FLC -8, T cruzi inh -9, Bfl-1 A1 inh 0.2, Ecoli rRNA inh OD600 4 and Ecoli rRNA inh RFP -3.0.
Screening COc1ccc(C(=O)N2CCCC(Nc3ccc(F)c(F)c3)C2)c(OC)n1 (stereo unspecified) returned MLL AF4-AF9 inh -3.4, Vif TR-FRET -1%, RanGTP-Imp inh 0.0, Beta cell apopt 2, Ecoli rRNA inh -6, Calb FLC -2, T cruzi inh 28, Bfl-1 A1 inh 0.7, Ecoli rRNA inh OD600 -17 and Ecoli rRNA inh RFP -1.1.
O=C(COC(=O)c1nc(Cl)ccc1Cl)c1ccc[nH]1 was read as MLL AF4-AF9 inh 0.3, Vif TR-FRET 11%, RanGTP-Imp inh 7.0, Ecoli rRNA inh 0, Calb FLC -2, T cruzi inh -23, Bfl-1 A1 inh -0.1, Ecoli rRNA inh OD600 0 and Ecoli rRNA inh RFP -1.3.
O=C(NCc1ccccc1)c1n[nH]nc1-c1ccccc1O was read as Vif TR-FRET 1%, RanGTP-Imp inh inconclusive, Beta cell apopt 4, Calb FLC 1, T cruzi inh -9 and Bfl-1 A1 inh -0.8.
COC1=C(Nc2ccccc2)C(=O)c2ccccc2C1=O was read as RanGTP-Imp inh 3.3, Beta cell apopt 95*, Calb FLC 37, T cruzi inh 3 and Bfl-1 A1 inh -0.2.
Screening COC(=O)C1=C(C)NC(C)=C(C(=O)OC)C1C(=O)OC1CCCCC1=O (stereo unspecified) returned MLL AF4-AF9 inh 0.7, Vif TR-FRET 5%&24%, RanGTP-Imp inh -2.5, Beta cell apopt -6, Calb FLC 9, T cruzi inh -9 and Bfl-1 A1 inh 0.0.
CCCC12CN3CC(C)(CN(C1)C3c1ccc3c(c1)OCO3)C2=O (stereo unspecified) was read as Vif TR-FRET 2%, RanGTP-Imp inh 5.5, Beta cell apopt 0, Calb FLC -2, T cruzi inh -5 and Bfl-1 A1 inh 0.8.
